Assay outcomes as filed in PubChem BioAssay.
WNV protease inh – blocks West Nile virus NS2B-NS3 protease activity. P06935. WNV NS2B-NS3 protease, fluorogenic substrate Ex360/Em465; hits give low values. z-score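 (tested at a level between 10 and 100 µM)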. 0.18% of 65,000 active;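 active means z-score at -3 or under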;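 further: score is relative to mean and spread of the compound wells of a plate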
Target sequence (P06935 1371-1501 limits assumed): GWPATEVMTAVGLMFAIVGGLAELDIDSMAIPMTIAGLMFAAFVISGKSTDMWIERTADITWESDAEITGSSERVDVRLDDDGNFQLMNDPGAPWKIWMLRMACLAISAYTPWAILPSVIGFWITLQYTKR
Target sequence (P06935 1502-1679 limits assumed): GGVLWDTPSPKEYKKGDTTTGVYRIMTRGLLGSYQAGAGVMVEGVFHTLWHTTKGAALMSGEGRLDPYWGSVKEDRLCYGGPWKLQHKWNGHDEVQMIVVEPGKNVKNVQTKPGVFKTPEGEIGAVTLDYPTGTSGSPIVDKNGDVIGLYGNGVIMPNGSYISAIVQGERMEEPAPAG
Hsc70 – small molecules displacing fluorescent ligand from Hsc70 – biochemical, fluorescence polarization, primary screen (AID 568) | Hsc70 fluorescence polarization, probe displacement; higher % means a stronger effect; strong numbers were not always called active | displacement, % at 20 µM; hits with a dose series show IC50 in µM | 83,000 tested, under 10 active;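 active means displacement above 50% without optical interference and an IC50 on retest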;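 further: ATPase domain with a fluorescein-tagged ATP probe; 0% = vehicle and 100% = excess ADP; read after one hour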
MT1-MMP reporter – MT1-MMP gene expression reporter suppression – cell-based, luciferase reporter, luminescence (AID 618) | MT1-MMP promoter luciferase reporter cells, luminescence | calls from a first round at 10 µM; hits with a dose series show EC50 in µM | 0.62% of 87,000 active;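 active means over half of the reporter light lost at 10 µM or EC50 under 50 µM; inactive means the rest and hits that failed the dose series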;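 further: actives suppress MT1-MMP promoter-driven transcription so potencies describe inhibitors; HT1080 fibrosarcoma cells; overnight exposure; toxic or luciferase-blocking compounds were not removed from the actives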
Active calls of the source: *; i = inactive; nt = not tested or not shown. An excerpt; count on the stated rates, not on these rows.

SMILES	WNV protease inh	Hsc70	MT1-MMP reporter
O=C(O)CCc1nn2cc(-c3ccccc3)nc2[nH]c1=O	0.83	4.7%	i
CN1CCN(C(=O)c2ccc3ccccc3c2)CC1	-1.63	1.1%	i
CC(C)N(C(=O)C(F)(F)F)C(C(=O)NC1CCCCC1)c1ccncc1 (stereo unspecified)	nt	3.0%	i
O=C(CN1C(=O)c2ccccc2C1=O)Nc1ccc(N2CCOCC2)cc1	0.89	-2.2%	i
CCOCCCNC(=O)C1CCN(C(=O)Nc2ccc(C)cc2)CC1	-0.3	3.2%	i
COc1ccc(CCn2c(N)c(S(=O)(=O)c3cccs3)c3nc4ccccc4nc32)cc1OC	-0.11	-4.8%	i
Cc1cc(-c2nnc3n2CCCCC3)c(C)n1-c1ccccc1	0.42	1.3%	i
CCn1c(SCC(=O)NCc2cccs2)nnc1-c1ccco1	-0.3	-5.6%	i
CC(C)C(=O)Nc1nc(-c2ccccc2)ns1	nt	-0.6%	i
CCN(CC)S(=O)(=O)c1ccc2c(c1)nc(CCC(=O)Nc1cccc(C(F)(F)F)c1)n2CC	nt	6.2%	i
O=C1CSC(c2ccccc2F)N1c1ccccc1 (stereo unspecified)	nt	3.6%	i
Cc1cc(C(=O)Nc2ccc(S(=O)(=O)Nc3onc(C)c3C)cc2)cs1	-0.19	4.9%	i
CCc1nc(Nc2ccc3c(c2)OCCO3)c2oc3ccccc3c2n1	nt	-2.1%	i
Cc1ccsc1C(C(=O)NC1CCCCC1)N(C(=O)c1csnn1)C1CC1 (stereo unspecified)	-0.24	-3.6%	i
CCN(CC)S(=O)(=O)c1ccc(-c2nnc3sc4cccc(C)c4n23)cc1	0.55	-0.5%	i
N/C(=N\S(=O)(=O)c1ccc(Cl)s1)c1ccccc1	-0.21	-5.9%	i
CCCCN(C(=O)c1c(C)[nH]c(C(=O)OCC)c1C)c1ccccc1	3.18	3.9%	i
O=[N+]([O-])/C(=C\Nc1ccccc1Cl)S(=O)(=O)c1ccccc1	nt	1.1%	i
O=C1NCCN1CCNS(=O)(=O)c1ccc2ccccc2c1	-0.39	-2.3%	i
CCOc1ccccc1-n1nnnc1SCC(=O)Nc1cc2oc3ccccc3c2cc1OC	1.51	-8.9%	i
CC(=O)c1cc(C#N)c(SCc2ccc(F)cc2)nc1C	nt	0.5%	i
O=C(OCC1COc2ccccc2O1)c1c(F)cccc1F (stereo unspecified)	-1.01	-0.2%	i
COc1cccc(NC(=O)NCc2cccn2C)c1	-0.41	1.9%	i
CC(C)CCNC(=O)C(c1cccnc1)N(CCc1ccccc1)C(=O)Cn1nnc2ccccc21 (stereo unspecified)	nt	1.5%	i
CCN1CCN(c2ncc(C(=O)N3CCN(c4ccccc4OC)CC3)c3ccccc23)CC1	-0.52	0.3%	i

A draw from above in order of length of the SMILES, low to high.
SMILES	WNV protease inh	Hsc70	MT1-MMP reporter
O=C1CSC(c2ccccc2F)N1c1ccccc1 (stereo unspecified)	nt	3.6%	i
CC(C)C(=O)Nc1nc(-c2ccccc2)ns1	nt	-0.6%	i
O=C(OCC1COc2ccccc2O1)c1c(F)cccc1F (stereo unspecified)	-1.01	-0.2%	i

Going on with the list.
SMILES	WNV protease inh	Hsc70	MT1-MMP reporter
S=C(NC1CCCCC1)c1ccc2c(c1)OCO2	nt	-0.3%	i
O=C(OCc1cc(-c2ccccc2)no1)c1ccc2ccccc2n1	-0.18	-0.3%	i
CCOc1ccccc1C(=O)Nc1ccccc1C(N)=O	0.18	-0.1%	i
CC(=O)Nc1ccccc1-c1nn[nH]n1	nt	5.4%	i
CC(=O)c1nnn(-c2nc(N3CCCC3)nc(N(c3ccccc3)c3ccccc3)n2)c1C	0.59	1.9%	i
CCOc1ccc(-c2nnc(N(CC)C(=O)C3CCC3)s2)cc1	-0.65	1.6%	i
Cc1cc(C(=O)CSc2nnc(-c3cccs3)n2Cc2ccccc2)c(C)n1C	0.34	8.4%	i
COc1cc(OC)cc(C(=O)NCCn2ccc3ccccc32)c1	-0.25	2.0%	i
O=C(CN(CC1CCCO1)C(=O)CCC(=O)Nc1nccs1)NCC1CCCO1 (stereo unspecified)	0.36	-2.3%	i
O=C(NC1(O)C(=O)c2ccccc2C1=O)c1ccccc1	-0.94	-8.2%	i
Cc1ccc(C(c2sc3ncnn3c2O)N2CCCCC2)cc1 (stereo unspecified)	2.71	1.0%	i
CS(=O)CSc1nc2c(cc1C#N)CCCC2 (stereo unspecified)	-0.14	2.1%	i
CS(=O)(=O)c1ccc(-c2nn[nH]n2)cc1	-0.41	0.8%	i
CCN(CC)S(=O)(=O)c1cccc(-c2nnc(-c3ccc(C)cc3)o2)c1	nt	1.8%	i
CCOc1ccc(NC(=O)C2C3C=CC4(CN(C(C(=O)OC)C(C)C)C(=O)C24)O3)cc1 (stereo unspecified)	-0.1	1.6%	i
O=C1CN(S(=O)(=O)c2ccccc2)CC(=O)N1CCc1ccccc1	0.16	4.6%	i
Cc1ccc(-c2noc(CCC(=O)N3CCCc4ccccc43)n2)cc1	0.28	3.6%	i
CSc1ccccc1NC(=O)c1cnc2scc(C)n2c1=O	-0.62	0.0%	i
CCCCn1c(SCC(=O)N2CCCCC2C)nc2cc(S(N)(=O)=O)ccc21 (stereo unspecified)	nt	1.9%	i
CCOC(=O)CSc1nc2ccccc2n1CC(=O)N(C(C)C)C(C)C	0.17	1.8%	i
CCOC(=O)c1ccc(NC(=O)C(C)N2C(=O)c3ccccc3C2=O)cc1 (stereo unspecified)	-0.96	-4.5%	i
Cc1ccccc1N(CC(=O)NCC1CCCO1)C(=O)C1(C)CC(=O)N=C2C=CC=CN21 (stereo unspecified)	0.58	-5.7%	i
CCN(CC)C(=O)CSc1ncnc2c1nnn2-c1ccc(OC)cc1	-0.75	3.1%	i
COc1ccc(OC)c(N2C(=O)CC(C(C)c3ccccc3)C2=O)c1 (stereo unspecified)	2.19	-0.5%	i
Cc1noc(C)c1S(=O)(=O)N1CCCC(C(=O)N2CCN(C3CCCCC3)CC2)C1 (stereo unspecified)	-0.08	-0.4%	i
Continued.
SMILES	WNV protease inh	Hsc70	MT1-MMP reporter
CCOc1ccc(N(CC(=O)NC2CCCC2)C(=O)CCC(=O)Nc2ccccn2)cc1	0.07	-0.1%	i
O=c1cc(-c2cccs2)oc2ccc(Cl)cc12	nt	1.3%	i
O=C(NCc1ccccc1)c1cc(-c2ccco2)on1	-0.31	-1.1%	i
COc1ccc(CNC(=O)CSc2nc(-c3ccccc3)cc(-c3cccs3)c2C#N)cc1	nt	-6.6%	i
Cc1cccc(NC(=O)C2CCN(S(=O)(=O)c3cccc4cccnc34)CC2)n1	-0.01	-0.3%	i
CCOC(=O)COc1ccc2c(c1)C(=O)CC(C)(c1cccnc1)O2 (stereo unspecified)	1.85	-6.7%	i
COc1ccc(N2CCN(Cc3cc(=O)oc4ccc5ccccc5c34)CC2)cc1	-0.79	2.2%	i
CCOC(=O)CNS(=O)(=O)c1cc(-c2nn(C)c(=O)c3ccccc23)ccc1C	-0.15	1.7%	i
CCOC(=O)c1cc(C#N)c(SCc2ccc(C#N)cc2)nc1C	-2.17	-2.9%	i
COc1ccc(C(=O)c2ccc(OC)c3cccc(O)c23)cc1OC	nt	-0.4%	i
COc1ccc(CC(=O)NCCN2CCCC2)cc1	nt	4.6%	i
CCCC1CCC(C2=N/C(=C\c3ccc(OC)c(OC)c3)C(=O)O2)CC1 (stereo unspecified)	nt	-5.0%	i
CCc1ccc(OCCNC(=O)c2ccc(S(=O)(=O)N(C)C)cc2)cc1	nt	-0.4%	i
COC(=O)C(C)NC(=O)C1CCCN1S(=O)(=O)c1cc(C)c(Cl)cc1C (stereo unspecified)	-0.6	-0.9%	i
COc1ccc(CN(C)c2ncnc(N)n2)cc1	nt	7.8%	i
CCN(CC)S(=O)(=O)c1cccc(C(=O)OCC(=O)C23CC4CC(CC(C4)C2)C3)c1	nt	-5.7%	i
Cc1cc(C)cc(OCC(=O)Nc2cccc(-c3nnc(-c4ccco4)o3)c2)c1	0.38	-1.8%	i
CCCC(c1nnnn1CC1CCCO1)N1CCN(c2cc(Cl)ccc2C)CC1 (stereo unspecified)	-0.13	-2.1%	i
CC1=CCC2(CO)COC(c3ccccc3O)C1C2 (stereo unspecified)	0.35	-2.6%	i
COc1ccc(-c2cc(C(F)(F)F)n3nc(C)cc3n2)cc1	-0.25	-4.8%	i
CCOC(=O)C1=C(C)NC(=O)NC1c1c(C)nn(-c2ccccc2)c1Cl (stereo unspecified)	2.11	-2.1%	i
CCCSc1nnc(-c2c[nH]c3ccccc23)n1C	-0.21	4.1%	i
CCN(CC)Cc1c(C(=O)OC(C)C)nnn1-c1nonc1N	-0.2	-5.0%	i
Cc1ccc(C(=O)CSc2nnc(CNc3ccc(C)cc3C)o2)cc1	0.38	0.7%	i
N#Cc1c(N)sc2c1CCN(C(=O)OCc1ccccc1)C2	-0.11	-6.5%	i

Single records, as listed above.
COc1ccc(CN(C)c2ncnc(N)n2)cc1 across the screens: WNV protease inh = nt; Hsc70 = 7.8%; MT1-MMP reporter = i
CCOC(=O)C1=C(C)NC(=O)NC1c1c(C)nn(-c2ccccc2)c1Cl (stereo unspecified) across the screens: WNV protease inh = 2.11; Hsc70 = -2.1%; MT1-MMP reporter = i
COc1ccc(N2CCN(Cc3cc(=O)oc4ccc5ccccc5c34)CC2)cc1 across the screens: WNV protease inh = -0.79; Hsc70 = 2.2%; MT1-MMP reporter = i

The list continues:
SMILES	WNV protease inh	Hsc70	MT1-MMP reporter
CCOC(=O)c1c(C)[nH]c(C)c1C(=O)COC(=O)CNC(=O)c1ccc(OCC)cc1	-0.55	0.1%	i
CCCCNc1nc2c(c(=O)[nH]c(=O)n2C)n1CCOc1ccccc1	0.02	-6.6%	i
Cc1nn(C)cc1CN(C)C(=O)c1sc2cccc(Cl)c2c1Cl	-0.55	4.5%	i
Nc1nc2n(n1)C(c1c(F)cccc1Cl)CC(c1ccc(F)cc1)N2 (stereo unspecified)	-0.65	0.4%	i
Nc1ccccc1NC(=O)c1ccccc1	-1.46	0.7%	i
COn1c(SCc2cccc(Cl)c2)nc2ccccc2c1=O	nt	5.3%	i
O=C(c1ccco1)N1CCN(S(=O)(=O)c2ccc(Oc3ccccc3)cc2)CC1	1.58	2.8%	i
O=C(NCCN1CCN(C(=O)Nc2ccccc2)CC1)Nc1ccccc1	-0.22	1.0%	i
CC(C)NC(=O)C1CCCN(c2nnc(-n3cccc3)s2)C1 (stereo unspecified)	-1.85	1.2%	i
C=CCc1ccc(OCC(O)CO)c(OC)c1 (stereo unspecified)	nt	6.4%	i
Cc1nn(C)c(C)c1NS(=O)(=O)c1ccccc1	-0.65	-0.5%	i
CC(=O)c1sc(NC(=O)c2c(F)cccc2F)nc1C	nt	-5.9%	i
COc1ccc2c(c1)c1c3n2CCN(C)C3=NCC1	-0.06	1.7%	i
Cc1cc(NC(=O)COC(=O)C(Cc2ccccc2)NC(=O)c2ccco2)no1 (stereo unspecified)	-0.79	1.4%	i
CCNC(=O)CC1C(=O)N(c2ccc(F)cc2)C(=O)N1Cc1ccccn1 (stereo unspecified)	0.46	-0.5%	i
C=CCNCCCCOc1ccc(OCC)cc1	nt	1.6%	i
CN1C(=O)CC(c2ccco2)Sc2ccccc21 (stereo unspecified)	-1.3	-0.7%	i
O=C(O)CCc1ccc(-c2ccccc2)o1	-0.9	4.8%	i
NC(=O)C1CCCN(C(=O)c2ccc(Cl)cc2)C1 (stereo unspecified)	1.21	4.2%	i
O=C(c1ccco1)N1CCN(c2nc(C3CC3)nc3sc4c(c23)CCCC4)CC1	-0.75	-3.0%	i
O=C(Cn1cnc2c(nnn2Cc2ccccc2)c1=O)c1ccccc1	1.42	2.5%	i
CN(C)CCNC(=O)c1cc2c(=O)n(C)c3ccccc3c2n1C	0.43	4.8%	i
Cc1ccc(C(=O)CSc2n[nH]c(C)n2)cc1	-0.73	2.0%	i
O=C(NCC(c1cccnc1)N1CCOCC1)c1cccc(Cl)c1 (stereo unspecified)	1.75	1.7%	i
Cc1nc2ccc(NC(=O)NCc3ccco3)cc2s1	1.38	-2.4%	i
Additional structures:
SMILES	WNV protease inh	Hsc70	MT1-MMP reporter
O=C(NCc1ccco1)C1CCN(S(=O)(=O)c2ccc(-n3cnnn3)cc2)CC1	-0.17	4.9%	i
CCn1c(=O)n(CCc2ccccc2)c(=O)c2c3c(sc21)CCCC3	nt	-0.4%	i
O=C(NCc1ccncc1)c1c(F)c(F)c(F)c(F)c1F	0.67	-4.3%	i
CCOC(=O)Cc1nnc2c(Nc3ccc(Cl)cc3)nc3nonc3n12	-0.13	1.2%	i
Cn1c(=O)c2c(SCc3ccccc3)nc(-c3ccco3)nc2n(C)c1=O	-0.72	0.9%	i
O=C(CSCc1ccccn1)Nc1ccccc1	0.84	-0.4%	i
O=C(Nc1ccc2ccccc2c1)c1cccnc1	-0.84	3.7%	i
CCOC(=O)C1CCCN(C(=O)c2sc3nc(C)nc(N(CC)CC)c3c2C)C1 (stereo unspecified)	nt	7.0%	i

Three of the compounds above, in markdown.
| structure | WNV protease inh | Hsc70 | MT1-MMP reporter |
| --- | --- | --- | --- |
| CS(=O)(=O)c1ccc(-c2nn[nH]n2)cc1 | -0.41 | 0.8% | i |
| CCOc1ccc(-c2nnc(N(CC)C(=O)C3CCC3)s2)cc1 | -0.65 | 1.6% | i |
| O=C(NCc1ccccc1)c1cc(-c2ccco2)on1 | -0.31 | -1.1% | i |
